Assay outcomes as filed in PubChem BioAssay.
CHO parental Ca: counter-screen: ATP calcium response change in parental CHO cells; parental CHO-K1, ATP-induced calcium, Fluo-8 fluorescence; inhibition, % at 5.6 µM; 330,000 tested, 0.63% active; AID 463079;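 active = inhibition above that plate's mean sample inhibition plus 3 SD, cut at about 26% in these data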;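 also: 0% = ATP-challenged DMSO wells and 100% = DMSO wells without ATP; some compounds past the cut are filed as inactive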
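Material – parental CHO cells · Reagent – ATP stimulus · Compound – single nominal dose of 5.6 µM per compound · Detection – Fluo-8 fluorescence · Read-out basis – percent inhibition of calcium signal · Controls – ATP-challenged DMSO wells low, unchallenged DMSO wells high · Repeats – no replicates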
TAAR1 antag: antagonists of human TAAR1; 360,000 tested, 1.5% active; CHO RD-HGA16 TAAR1, Fluo-8 calcium fluorescence, antagonist; inhibition, % at 3 µM; Q96RJ0;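 active = inhibition above a per-plate cutoff, the mean inhibition of test compounds on that plate plus 3 SD, cut at about 49% in these data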;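 also: 0% = DMSO plus EC80 beta-PEA response and 100% = DMSO alone without agonist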
Target sequence (Q96RJ0 whole entry, looked up): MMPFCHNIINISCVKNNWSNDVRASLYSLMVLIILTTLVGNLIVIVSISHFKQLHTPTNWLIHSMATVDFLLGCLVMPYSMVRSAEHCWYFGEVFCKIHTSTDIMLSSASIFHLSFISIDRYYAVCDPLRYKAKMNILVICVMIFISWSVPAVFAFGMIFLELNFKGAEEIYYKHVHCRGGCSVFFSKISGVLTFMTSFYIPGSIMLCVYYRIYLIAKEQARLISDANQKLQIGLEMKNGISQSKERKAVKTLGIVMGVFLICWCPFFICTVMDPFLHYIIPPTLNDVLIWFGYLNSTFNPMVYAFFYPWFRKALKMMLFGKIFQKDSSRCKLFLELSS
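System: CHO RD-HGA16 cells bearing hTAAR1. Reagent: EC80 β-phenethylamine stimulus. Schedule: seeding 17-24 h prior, 75-min 37 °C, 30-min RT dye loading. Signal: Fluo-8 intracellular calcium dye fluorescence, real-time kinetic reads. Read-out: % inhibition from peak post-agonist over basal fluorescence ratio. Benchmarks: vehicle wells and EC80 agonist wells. Replicates: n of 1.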
OXTR potentiator: potentiates the human oxytocin receptor response. P30559. CHO-OTR cells, Fluo-8 calcium fluorescence, potentiator mode; 0% = oxytocin EC15, 100% = EC100. activation, % at 3 µM. 320,000 tested, 0.061% active. AID 2445;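 active = activation above that plate's cutoff, the mean activation of tested compounds plus 3 SD, cut at about 6.6% in these data, passing the limit was not always enough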;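 also: 100% uses oxytocin at 75 nM as the full agonist control; some results filed as inactive read as strong as hits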
Target sequence (P30559 whole entry, looked up): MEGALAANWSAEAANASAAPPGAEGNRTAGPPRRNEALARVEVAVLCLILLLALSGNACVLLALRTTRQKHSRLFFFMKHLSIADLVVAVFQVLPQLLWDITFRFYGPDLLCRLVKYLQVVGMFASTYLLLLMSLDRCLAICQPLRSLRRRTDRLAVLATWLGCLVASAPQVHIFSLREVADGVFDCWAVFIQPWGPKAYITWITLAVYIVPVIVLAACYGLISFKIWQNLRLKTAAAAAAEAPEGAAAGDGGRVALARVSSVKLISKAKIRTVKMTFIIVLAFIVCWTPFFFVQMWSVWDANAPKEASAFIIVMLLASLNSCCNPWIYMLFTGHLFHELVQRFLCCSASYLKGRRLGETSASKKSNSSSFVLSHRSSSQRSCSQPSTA
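Assay system: CHO cell line stably expressing human OTR. Reagent: EC15 oxytocin agonist. Dosing: single dose, 3.0 µM nominal final compound concentration. Timing: compound 6 min at room temperature before oxytocin, 100 s read. Signal: kinetic Fluo-8 calcium fluorescence. Controls: oxytocin EC15 low and EC100 high.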
* hit, by the source's call; · = not tested or not shown; & = joins results of further samples. The list is partial; the hit share may differ from the screen's.

Values in the order: CHO parental Ca | TAAR1 antag | OXTR potentiator
> Nc1ccc(S(=O)(=O)c2ccc(N)cc2)cc1
→ 2.5 | -8.8 | -6.1
> CC[N+](CC)(CC)CCOc1cccc(OCC[N+](CC)(CC)CC)c1OCC[N+](CC)(CC)CC
→ 4.8 | · | -9.1
> CC1(C)S[C@@H]2[C@H](NC(=O)C(NC(=O)N3CCNC3=O)c3ccccc3)C(=O)N2[C@H]1C(=O)O (some centres not stated)
→ 7.1 | -11.3 | -15.8
> COc1ccc(C2C(=O)c3ccccc3C2=O)cc1
→ -0.8 | -29.4 | -3.0
> C#C[C@]1(O)CC[C@H]2[C@@H]3CCC4=CC(=O)CC[C@@H]4[C@H]3CC[C@@]21C
→ -15.7 | 16.2 | -3.7
> COC(=O)[C@H]1[C@H]2C[C@H]3c4[nH]c5ccccc5c4CCN3C[C@@H]2CC[C@@H]1O
→ -10.1&-3.6 | 5.4&7.4 | -2.5&-1.1
> CCC1NC(=O)c2cc(S(N)(=O)=O)c(Cl)cc2N1 (configuration not stated)
→ -3.5 | -8.5 | -5.9
> CC(=O)c1cccc(OCc2cc(C(=O)N(C)C(C)c3ccccn3)no2)c1 (configuration not stated)
→ -18.6 | -4.6 | -6.1
> Clc1ccc(C(c2ccccc2Cl)C(Cl)Cl)cc1 (configuration not stated)
→ -24.2 | 15.3 | -20.1
> CN1[C@@H]2CC[C@H]1CC(OC(=O)[C@H](CO)c1ccccc1)C2 (some centres not stated)
→ 9.1 | -15.3 | -12.6
> CC(=O)O[C@H]1C(=O)[C@@]2(C)C([C@H](OC(=O)c3ccccc3)[C@]3(O)C[C@H](OC(=O)[C@H](O)[C@@H](NC(=O)c4ccccc4)c4ccccc4)C(C)=C1C3(C)C)[C@]1(OC(C)=O)CO[C@@H]1C[C@H]2O (some centres not stated)
→ -2.1 | -1.5 | -0.5
> COc1c2occc2cc2ccc(=O)oc12
→ -9.9 | 4.8 | -2.5
> Nc1nc(Cl)nc2c1ncn2[C@H]1C[C@H](O)[C@@H](CO)O1
→ -3.6 | -8.6 | -8.9
> CCCNC(C)C(=O)Nc1ccccc1C (configuration not stated)
→ 3.6 | -7.0 | 2.2
> CCN1CCCC1CNC(=O)c1cc(S(=O)(=O)CC)c(N)cc1OC (configuration not stated)
→ -7.5 | · | 1.6
> CC(C)(C(=O)O)c1ccc([C@H](O)CCCN2CCC(C(O)(c3ccccc3)c3ccccc3)CC2)cc1
→ 0.1 | 7.1 | 0.0
> CCOC(=O)N1CCC(=C2c3ccc(Cl)cc3CCc3cccnc32)CC1
→ -24.7 | -55.3 | -5.5
> COc1ccc2c(c1OC)C(=O)OC2C1c2c(cc3c(c2OC)OCO3)CCN1C (configuration not stated)
→ -20.0&-14.1&-11.5 | -3.3&-7.1&-27.1 | 0.3&-5.5&-2.1
> COc1cc2c(c(OC)c1OC)-c1ccc(OC)c(=O)cc1C(NC(C)=O)CC2 (configuration not stated)
→ 2.4 | -28.5 | -1.0
> CN(C)CC/C=C1\c2ccccc2COc2ccccc21
→ -11.8 | 0.4 | -6.9
> CN(C)CC/C=C1/c2ccccc2Sc2ccc(Cl)cc21
→ -15.4&-13.4 | 37.0&27.2 | -6.8&-7.4
> Cc1ccc(S(=O)(=O)NC(=O)NN2CC3CCCC3C2)cc1 (configuration not stated)
→ -7.2 | -23.7 | -2.2
> C[C@H](NC(CCc1ccccc1)C(=O)O)C(=O)N1CCC[C@H]1C(=O)O (some centres not stated)
→ -5.8 | · | -7.4
> NCCNCCNCCN
→ -1.2 | -24.8 | -15.3
> Cc1cc(NS(=O)(=O)c2ccc(N)cc2)no1
→ 2.5 | 1.8 | -2.9
> CC(C)(C)NC(=O)[C@@H]1C[C@@H]2CCCC[C@@H]2CN1C[C@@H](O)[C@H](Cc1ccccc1)NC(=O)[C@H](CC(N)=O)NC(=O)c1ccc2ccccc2n1
→ -28.0&-26.8 | -24.1&-11.1 | -18.4&-7.0
> Cc1cc(C)nc(NS(=O)(=O)c2ccc(N)cc2)n1
→ 0.1&-0.8 | -27.5 | -5.4&-2.3
> C[C@@H]1C[C@H]2[C@@H]3CCC4=CC(=O)C=C[C@]4(C)[C@@]3(F)[C@@H](O)C[C@]2(C)[C@@]1(O)C(=O)COP(=O)(O)O
→ -7.5 | -3.1 | -12.0
> CCOC(=O)OC(C)OC(=O)[C@@H]1N2C(=O)[C@@H](NC(=O)[C@H](N)c3ccccc3)[C@H]2SC1(C)C (some centres not stated)
→ -0.7 | -10.8 | -6.9
> CC(=O)OCC(=O)NCCCOc1cccc(CN2CCCCC2)c1
→ -7.6 | -5.0 | -1.5

A few values from the entries so far.
`CC(=O)O[C@H]1C(=O)[C@@]2(C)C([C@H](OC(=O)c3ccccc3)[C@]3(O)C[C@H](OC(=O)[C@H](O)[C@@H](NC(=O)c4ccccc4)c4ccccc4)C(C)=C1C3(C)C)[C@]1(OC(C)=O)CO[C@@H]1C[C@H]2O` (some centres not stated) in TAAR1 antag: -1.5
`CN1[C@@H]2CC[C@H]1CC(OC(=O)[C@H](CO)c1ccccc1)C2` (some centres not stated) in TAAR1 antag: -15.3
`CC1(C)S[C@@H]2[C@H](NC(=O)C(NC(=O)N3CCNC3=O)c3ccccc3)C(=O)N2[C@H]1C(=O)O` (some centres not stated) in CHO parental Ca: 7.1
`CCCNC(C)C(=O)Nc1ccccc1C` (configuration not stated) in TAAR1 antag: -7.0
`Cc1cc(NS(=O)(=O)c2ccc(N)cc2)no1` in OXTR potentiator: -2.9
`CN(C)CC/C=C1\c2ccccc2COc2ccccc21` in TAAR1 antag: 0.4
`COc1ccc(C2C(=O)c3ccccc3C2=O)cc1` in CHO parental Ca: -0.8

4 entries already listed, ordered by the number in OXTR potentiator, smallest number first.
Molecule	OXTR potentiator
Clc1ccc(C(c2ccccc2Cl)C(Cl)Cl)cc1 (configuration not stated)	-20.1
CC1(C)S[C@@H]2[C@H](NC(=O)C(NC(=O)N3CCNC3=O)c3ccccc3)C(=O)N2[C@H]1C(=O)O (some centres not stated)	-15.8
Nc1nc(Cl)nc2c1ncn2[C@H]1C[C@H](O)[C@@H](CO)O1	-8.9
Nc1ccc(S(=O)(=O)c2ccc(N)cc2)cc1	-6.1

Later entries.
Values in the order: CHO parental Ca | TAAR1 antag | OXTR potentiator
> CCCCN(CCCC)CCC(O)c1cc2c(Cl)cc(Cl)cc2c2cc(C(F)(F)F)ccc12 (configuration not stated)
→ -15.5 | -16.0 | 2.5
> CN(C)CCOC(c1ccccc1)c1ccccc1
→ 2.0&-13.4 | -42.5&-20.1 | 2.1&-6.5
> CC1(C)O[C@@H]2C[C@H]3[C@@H]4CCC5=CC(=O)C=C[C@]5(C)[C@@]4(F)[C@@H](O)C[C@]3(C)[C@]2(C(=O)CO)O1
→ -15.0 | -21.6 | -4.9
> C[C@H](CS)C(=O)N1CCC[C@H]1C(=O)O
→ -11.7 | -6.2 | -17.3
> C[C@H]1O[C@@H](O[C@H]2[C@@H](O)C[C@H](O[C@H]3[C@@H](O)C[C@H](O[C@H]4CC[C@@]5(C)[C@H](CC[C@@H]6[C@@H]5C[C@@H](O)[C@]5(C)[C@@H](C7=CC(=O)OC7)CC[C@]65O)C4)O[C@@H]3C)O[C@@H]2C)C[C@H](O)[C@@H]1O
→ -8.7&0.1 | -6.0 | -3.6&0.1
> COc1ccc2cc([C@@H](C)C(=O)O)ccc2c1
→ -1.6 | -11.6 | -5.9
> NS(=O)(=O)c1cc2c(cc1C(F)(F)F)NCNS2(=O)=O
→ 2.5 | -6.7 | -5.2
> CN1[C@@H]2CC[C@H]1CC(OC(=O)C(CO)c1ccccc1)C2 (some centres not stated)
→ -7.8 | 9.3 | 1.1
> COc1cc(NC(C)CCCN)c2ncccc2c1 (configuration not stated)
→ -5.4 | -15.7 | 5.3
> CN1C(C(=O)Nc2ccccn2)=C(O)c2sccc2S1(=O)=O
→ -5.3 | 18.8 | -5.7
> NCCCC(=O)O
→ 7.6 | -22.8 | -6.8
> CC(C)(C)NC(=O)[C@H]1CC[C@H]2[C@@H]3CC[C@H]4NC(=O)C=C[C@]4(C)[C@H]3CC[C@]12C
→ -2.7 | -4.0 | -7.8
> COc1ccc2c(c1)c(CC(=O)O)c(C)n2C(=O)c1ccc(Cl)cc1
→ -2.6 | -16.7 | -1.5
> CN1CCC[C@@H]1CCO[C@](C)(c1ccccc1)c1ccc(Cl)cc1
→ · | -15.8 | ·
> COc1cc2c(c(OC)c1OC)-c1ccc(OC)c(=O)cc1[C@@H](NC(C)=O)CC2
→ -15.0 | 14.4 | -5.1
> Cc1cccc(N(C)C(=S)Oc2ccc3ccccc3c2)c1
→ -12.3 | 15.3 | -8.9
> Nc1ccn([C@@H]2O[C@H](CO)[C@@H](O)[C@@H]2O)c(=O)n1
→ -1.9 | 3.9 | -3.5
> NC12CC3CC(CC(C3)C1)C2
→ 5.1 | 4.2 | 1.6
> C[C@]12CC[C@@H]3c4ccc(O)cc4CC[C@H]3[C@@H]1CC[C@@H]2O
→ 3.0 | 7.4 | -9.4
> NCCCCCC(=O)O
→ -0.5 | -4.8 | -6.6

Quoted at random: 5 compounds from above
Values in the order: CHO parental Ca | TAAR1 antag | OXTR potentiator
> NC12CC3CC(CC(C3)C1)C2
→ 5.1 | 4.2 | 1.6
> NCCCC(=O)O
→ 7.6 | -22.8 | -6.8
> NCCCCCC(=O)O
→ -0.5 | -4.8 | -6.6
> CC(C)(C)NC(=O)[C@H]1CC[C@H]2[C@@H]3CC[C@H]4NC(=O)C=C[C@]4(C)[C@H]3CC[C@]12C
→ -2.7 | -4.0 | -7.8
> C[C@H]1O[C@@H](O[C@H]2[C@@H](O)C[C@H](O[C@H]3[C@@H](O)C[C@H](O[C@H]4CC[C@@]5(C)[C@H](CC[C@@H]6[C@@H]5C[C@@H](O)[C@]5(C)[C@@H](C7=CC(=O)OC7)CC[C@]65O)C4)O[C@@H]3C)O[C@@H]2C)C[C@H](O)[C@@H]1O
→ -8.7&0.1 | -6.0 | -3.6&0.1
